Source: PubChem (National Center for Advancing Translational Sciences (NCATS))
Bst PK mod: modulators of Bacillus stearothermophilus pyruvate kinase. partly purified Bacillus stearothermophilus pyruvate kinase, luminescence ATP production; ribose 5-phosphate activator present at AC10. Potency, µM. actives 1.2% (n = 51,000). AID 361; in the data active means potency below about 11 µM; inconclusive means mostly about 12 µM to 25 µM; inactive means weaker than that;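 the screen sought inhibitors and activators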;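 further: potency means the concentration at half of the fitted maximal effect; scaled between full activation by ribose 5 phosphate and full inhibition by luteolin; about four in five hits inhibit and the cells do not say which; series up to 57 µM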
YjeE inh: YjeE (TsaE) inhibition, E. coli; Potency, µM; actives 0.05% (n = 71,000); purified YjeE, fluorescence polarisation of a bound ADP probe; P0AF67; active = well fitted falling curve; inconclusive = weaker or top-dose-only fall, or a rising curve; inactive = flat or poorly fitted curve;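 further: top concentration of the series not given in the record; excess ADP was the control for the full effect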
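Fluorescence polarization of a BODIPY Texas Red–ADP probe (2 uM) bound to purified YjeE (10 uM) was read after 15 min room-temperature incubation with compounds. Loss of polarization marks inhibitors; ADP serves as titrated control.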
Starred values were filed as active, the others as inactive; i = inactive; u = inconclusive; x = no result given. A portion of the library. The share of hits here may be higher or lower than overall.

Sequence of screens – Bst PK mod | YjeE inh
Cc1cc(OCC(=O)NC2CCS(=O)(=O)C2)c2c3c(c(=O)oc2c1)CCC3 (stereo not drawn)
    x | i
Nc1ccc([N+](=O)[O-])cc1
    x | i
O=C(O)C[C@H]1OCC=C2CN3CC[C@@]45C6=CC(=O)C(=O)C([N+](=O)[O-])=C6N[C@H]4[C@H]1[C@H]2C[C@@H]35
    x | i
CC(C)(C)[C@@]1(O)C[C@@H]2OC(=O)C[C@@]23C(=O)O[C@H]2OC(=O)[C@@H](O)[C@]231
    x | i
O=S(=O)(O)F
    x | i
COc1ccccc1N1CCN(Cc2ccc(Br)s2)CC1
    x | i
Cc1cccc(C)c1N
    x | i
c1cc2c(c(NC3=NCCN3)c1)CCCC2
    x | i
CC#CP(=O)(OCC)C(O)(c1ccccc1)C(F)(F)F (stereo not drawn)
    >57 | i
CCCS(=O)(=O)N1CCC(C(=O)N2CCC3(CC2)OCCO3)CC1
    >57 | i
Cc1ccc(N)cc1N
    x | i
O=C(O)c1nonc1-c1nonc1C(=O)O
    >57 | i
CCCN1CCC[C@H](c2cccc(O)c2)C1
    x | i
Cc1ccc(Cn2nnnc2CN2CCC(n3nnc4cc(C)ccc43)CC2)cc1
    >57 | i
C=CCO
    x | i
CCCCn1c(O)c(C(C)=Nc2cccc(C(=O)O)c2)c(=O)[nH]c1=O
    >57 | i
COc1ccc(C[C@H]2NC[C@H](O)[C@@H]2OC(C)=O)cc1
    x | i
Oc1c(Cl)c(Cl)cc(Cl)c1Cl
    x | i
NNC(N)=S
    x | i
CC(C)Sc1nnc([C@@H](N)Cc2c[nH]c3ccccc23)o1
    >57 | i
O=C(CCCC1=NS(=O)(=O)c2ccccc2N1)N1CCC2(CC1)OCCO2
    >57 | i
O=C(O)Cc1cccnc1C(=O)O
    x | i
Oc1ccc(Cl)cc1Cl
    x | i
CCCC(=O)c1c(O)[nH]c(=O)[nH]c1=O
    >57 | i
CC(=Nc1ccc2c(c1)CCC2)c1c(O)n(C)c(=O)n(C)c1=O
    >57 | i
Cn1c(O)c(C=NCCc2c[nH]c3ccccc23)c(=O)n(C)c1=O
    x | i
CCOC(=O)c1ccccc1N
    x | i
CC(=O)O[C@@H]1CN2CCC1CC2
    x | i
CC(=O)[C@H]1CC[C@H]2[C@@H]3CC[C@H]4C[C@H](O)CC[C@]4(C)[C@H]3C(=O)C[C@]12C
    >25.6 | x
Cn1cccc1CNCCc1ccccc1F
    >57 | i
CCCCCl
    x | i
Cc1cc(N2CCOCC2)nc2ccc(NC(=O)CCC(=O)N3CCC4(CC3)OCCO4)cc12
    x | i
C[C@@]12CC[C@H]3[C@@H](CC=C4C[C@H](OS(=O)(=O)O)CC[C@]43C)[C@H]1CCC2=O
    x | i
COc1cc2c(cc1O)[C@H]1Cc3ccc(OC)c(O)c3CN1CC2
    x | i
CC[N+](=O)[O-]
    x | i
CCOP(=S)(OCC)Oc1ccc([N+](=O)[O-])cc1
    x | i
C[C@]12CCC(=O)C[C@@H]1CC[C@@H]1[C@@H]2CC[C@]2(C)[C@@H](O)CC[C@@H]12
    x | i
Clc1cnc(Oc2ccc(Oc3ncc(Cl)cc3Cl)cc2)c(Cl)c1
    x | i
O=C(COc1ccc2ccccc2c1)N1CCN(C2CCN(Cc3ccccc3)CC2)CC1
    >11.4 | x
N[C@@H]1CCc2cc(O)c(O)cc2C1
    x | i
O=c1c2ccccc2nc(-c2cccs2)n1-c1cnccn1
    x | i
CCCCc1ccc(C(=O)O)nc1
    x | i
Cc1sc2ccccc2c1CC1=NCCN1
    x | i
Cc1ccc(CN2CC3CC(C2)c2cccc(=O)n2C3)cc1 (stereo not drawn)
    x | i
CCCCOC(=O)c1ccccc1C(=O)OCCCC
    x | i
C=CC(=O)OCC(C)C
    x | i
c1cnc(N2CC3(CCNCC3)C2)nc1
    x | i
ClCC(Cl)CCl
    x | i
CCOC(=O)C1CN(C)CCC1=O (stereo not drawn)
    >57 | i
CCS(=O)(=O)Nc1cccc(C(=C2CCCCC2)c2cnc[nH]2)c1
    x | i
CCCCCC[C@H]1C(=O)O[C@@H](C)[C@H](NC(=O)c2cccc(NC=O)c2O)C(=O)O[C@@H](C)[C@@H]1OC(=O)CC(C)C
    x | i
Cc1ccc2c(c1)C1CN(C)CCC1N2S(=O)(=O)c1ccccc1 (stereo not drawn)
    >57 | i
C=C(C)C#N
    x | i
O=C1c2ccccc2C2(c3ccc(Cl)cc3)NCCN12 (stereo not drawn)
    >57 | i
CCCCn1c(N)c(C(=O)NCCN2CCOCC2)c2nc3ccccc3nc21
    >57 | i
CC(=NCc1ccc2c(c1)OCO2)c1c(O)[nH]c(=O)[nH]c1=O
    >57 | i
CN1C(=O)C(Cc2ccsc2)C(=O)N(C)C1=O
    >57 | i
c1ccc2c(c1)OCC(C1=NCCN1)O2 (stereo not drawn)
    >11.4 | x
O=C(Oc1ccccc1)N1CCC2(CCCN(Cc3ccccc3)C2)CC1
    x | i
NCCc1ccc(O)cc1
    >57 | i

(next part)
Sequence of screens – Bst PK mod | YjeE inh
Cn1c(C(=O)N2CCC(C(=O)N3CCC4(CC3)OCCO4)CC2)cc2sccc21
    >57 | i
O=C1/C(=C\c2ccccc2)C[C@@]2(O)[C@H]3Cc4ccc(O)c5c4[C@@]2(CCN3CC2CC2)[C@@H]1O5
    x | u
COc1ccc(-c2cc(C(F)(F)F)n3nc(C(=O)N4CCC5(CC4)OCCO5)cc3n2)cc1OC
    >57 | i
Cc1cc(OC(=O)CCNC(=O)OC(C)(C)C)c2c3c(c(=O)oc2c1)CCC3
    i | i
O=C(CCCN1CCC(n2c(=O)[nH]c3ccccc32)CC1)c1ccc(F)cc1
    x | i
c1cncc(CNC2=NCCCCC2)c1
    >57 | i
Cc1ccccc1-n1c(O)c(C=NCCN2CCOCC2)c(=O)[nH]c1=O
    >57 | i
CN(C(=O)Cc1ccccc1)[C@H](CN1CCCC1)c1ccccc1
    x | i
CC[C@H](CO)NC(=O)[C@@H]1C=C2c3cccc4c3c(cn4C)C[C@@H]2N(C)C1
    x | i
Nc1ccc(-c2ccccc2)cc1
    x | i
CC1(C)CC(=O)C(C=NCCN2CCN(C(=O)Cc3ccc(Cl)cc3)CC2)=C(O)C1
    >57 | i
CN1C[C@H](C(=O)N[C@]2(C)O[C@@]3(O)[C@@H]4CCCN4C(=O)[C@H](Cc4ccccc4)N3C2=O)C=C2c3cccc4[nH]cc(c34)C[C@H]21
    x | i
CN(C)CCN=Cc1c(O)n(-c2cccc3ccccc23)c(=O)[nH]c1=O
    >57 | i
NNc1nncn1N
    x | i
O=C1c2ccccc2C(=O)N1Cc1nc2ccccc2c(=O)n1-c1cccnc1
    >25.6 | x
Cc1ccc2cc3cc(C(=O)N4CCC5(CC4)OCCO5)oc3nc2c1
    x | i
Clc1ccc(C(c2ccc(Cl)cc2)C(Cl)Cl)cc1
    x | i
CC(=O)[C@@H]1CC[C@@H]2[C@H]3CC[C@H]4C[C@@H](O)CC[C@]4(C)[C@@H]3C(=O)C[C@]21C
    x | i
COc1ccc(CC2c3cc(OC)c(OC)cc3CCN2C)cc1OC (stereo not drawn)
    >57 | i
Cc1cccc(C)c1NC1=NCCCCS1
    >57 | i
COCCOC(=O)C1=C(C)OC(N)=C(C(=O)OC)C12C(=O)Nc1ccccc12 (stereo not drawn)
    >57 | i
O=C(c1csnn1)N1CCC[C@@]2(CCN(Cc3ccncc3)C2)C1
    x | i
C[C@@H](N)Cn1ccc2cc(F)c(Cl)cc21
    x | i
O=C(COc1ccc(S(=O)(=O)N2CCCCC2)cc1)N1CCN(Cc2ccccc2)CC1
    >57 | i
NC(CCl)=N[C@H]1CN2CCC1CC2
    x | i
O=[N+]([O-])c1cccc(O)c1
    x | i
CS(=O)(=O)N1CCC2(CCCN(Cc3ccncc3)C2)CC1
    x | i
C[C@H](c1ccccc1)N1CCN([C@@H](C)c2ccccc2)CC1
    x | i
Cn1c(O)c(C=NCc2cccs2)c(=O)n(C)c1=O
    x | i
CCN1C[C@@]2(COC)[C@H](O)C[C@H](OC)[C@@]34[C@@H]5C[C@@]6(O)[C@H](OC(=O)c7ccccc7)[C@H]5[C@@](OC(C)=O)([C@H]([C@@H](OC)[C@H]23)[C@H]14)[C@H](O)[C@@H]6OC
    x | i
OCCN(CC#CC(O)(c1ccccc1)C1CCCC1)CCO (stereo not drawn)
    >57 | i
ClC(Cl)C(Cl)Cl
    x | i
CCCN(CCC)[C@H]1CCc2c(F)ccc(O)c2C1
    x | i
C=CC(=O)OCC(CC)CCCC (stereo not drawn)
    x | i
ClC(Cl)Br
    x | i
N[C@@H](CCCCP(=O)(O)O)C(=O)O
    x | i
COc1ccc(CCn2c(O)c(C=NCc3cccnc3)c(=O)[nH]c2=O)cc1OC
    >57 | i
O=[N+]([O-])c1cccc2c([N+](=O)[O-])cccc12
    x | i
CCOC(=O)c1ccc2[nH]c(-c3ccc(S(=O)(=O)F)cc3)cc(=O)c2c1
    x | i
CSc1ccc2c(c1)c(CCN)c(C)n2Cc1ccccc1Cl
    x | i
CCC(=O)c1c(O)n(C2CCCCCC2)c(=O)[nH]c1=O
    >57 | i
COc1ccc(OC)c(CC(=O)O)c1
    >57 | i
C=CC(=O)OCCO
    x | i
O=C(c1ccncc1)C12CN3CN(CN(C3)C1)C2
    x | i
CCN(CC)c1ccc(N=Cc2c(O)n(CCC3=CCCCC3)c(=O)[nH]c2=O)cc1
    >57 | i
O=c1[nH]c(=O)n(-c2cccc(Cl)c2)c(O)c1C=NCCCN1CCOCC1
    >57 | i
COC(=O)C1(C)C=C2C(=C(C)C(=O)C2C)CN1 (stereo not drawn)
    x | i
Clc1ccccc1-c1cncnc1NCCc1cnc[nH]1
    x | i
C/C(CCc1c[nH]c2ccccc12)=N\O
    >57 | i
CCN1C[C@]2(COC)CC[C@H](O)[C@@]34[C@@H]5C[C@H]6[C@@H](OC)[C@H]5[C@](O)(C[C@@H]6OC)[C@@](O)([C@@H](OC)[C@H]23)[C@@H]14
    x | i
Cc1noc(C)c1C(=O)N1CCC[C@@]2(CCN(CC(C)C)C2)C1
    x | i
CC1(C)C(c2ccccc2)=NC(c2cccnc2)N1O (stereo not drawn)
    x | i
CN(C)CC#CCOCCOCCC#N
    >57 | i
COc1ccccc1N1C(=O)NC(=O)C2(Cc3cc(C)ccc3N(C)C2)C1=O (stereo not drawn)
    >57 | i
C=CC1CC=CCC1 (stereo not drawn)
    x | i
CCOC(=O)c1c(-c2ccc(OC)cc2)oc2ccc(OC(=O)N(C)C)cc12
    i | i
C=C(C)c1cccc(C(C)(C)NC(=O)NC2CN3CCC2CC3)c1 (stereo not drawn)
    x | i
Cc1ccc(Cl)cc1N1CCN(CCN)CC1
    >57 | i
CCN1C[C@@]2(COC)CC[C@H](O)[C@@]34[C@@H]2C[C@@H]([C@@H]13)[C@]1(O)C[C@@H](OC)C2C[C@H]4[C@H]1[C@H]2OC(C)=O
    x | i
C=C1[C@@H]2C[C@@]3([C@H]1O)[C@H]1C[C@@H]4[C@@]5(C)CC[C@H](O)[C@]4([C@H]1N(CC)C5)[C@H]3C[C@H]2O
    x | i

The results go on.
Sequence of screens – Bst PK mod | YjeE inh
CCn1c(C)c(C(=O)O)c2cc(OC)ccc21
    >57 | i
CC(=NCc1cccnc1)c1c(O)n(Cc2ccccc2)c(=O)[nH]c1=O
    >57 | i
N[C@@H](Cc1c[nH]c2ccccc12)c1nnc(SCc2ccccc2F)o1
    u | i
C/C=C1\C[C@H](C)[C@](O)(CO)C(=O)OCC2=CCN3CC[C@@H](OC1=O)[C@@H]23
    x | i
C=CC(=O)OC
    x | i
CC(C)c1nccn1Cc1ccc(Cl)cc1Cl
    x | i
CC1=C(C(=O)N2CCC3(CC2)OCCO3)C2(CCC(C)CC2)OC1=O (stereo not drawn)
    >57 | i
O=c1[nH]c(=O)n(Cc2ccccc2)c(O)c1C=NCCCn1ccnc1
    >57 | i
CC(C)[C@@]1(NC(=O)[C@@H]2C[C@@H]3c4cccc5[nH]cc(c45)C[C@H]3N(C)C2)O[C@@]2(O)[C@@H]3CCCN3C(=O)[C@H](Cc3ccccc3)N2C1=O
    >25.6 | x
Cc1ccc(-n2c(O)c(C=NCCN3CCOCC3)c(=O)[nH]c2=O)cc1
    >25.6 | x
COc1cccc(CN2CCCCC2c2cccnc2)c1 (stereo not drawn)
    x | i
CC1(C)CCC(C)(C)c2c1ccc(O)c2Cc1c(O)ccc2c1C(C)(C)CCC2(C)C
    x | i
CN(C)CCN=Cc1c(O)n(CCC2=CCCCC2)c(=O)[nH]c1=O
    x | i
CC(C)C[C@H]1C(=O)N2CCC[C@@H]2[C@]2(O)O[C@](NC(=O)[C@H]3C=C4c5cccc6[nH]cc(c56)C[C@H]4N(C)C3)(C(C)C)C(=O)N12
    x | i
CP(C)(=O)CCC(=O)O
    x | i
Nc1ccc(Cc2ccc(N)c(Cl)c2)cc1Cl
    x | i
CCOC(=O)c1ccc(NC(=O)C2C3C=CC(O3)C2C(=O)O)cc1 (stereo not drawn)
    x | i
O=C(O)[C@H]1[C@H](C(=O)O)[C@H]2CC[C@@H]1O2
    x | i
C=CCOc1ccc(CC2C(=O)N(C)C(=O)N(C)C2=O)cc1
    >57 | i
CC(C)(C)c1cc(O)ccc1O
    x | i
